KCNQ2 enhance: potentiators of rat KCNQ2 potassium channel. Potassium voltage-gated channel subfamily KQT member 2 (Rattus norvegicus), O88943. CHO-K1 KCNQ2, FluxOR thallium flux fluorescence; hits give high values. B-score at 10 µM. actives 0.54% (n = 310,000). AID 2239, 2010;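 active = fluorescence ratio B-score at least 3 SD of library B-scores, with initial fluorescence B-score within 3 SD, cut at about 5.3 in these data; same plate scores as AID 2156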;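 also: B-score of peak minus minimum over baseline fluorescence ratio after K+ and Tl+ stimulus; positive B-score means potentiation of KCNQ2 with more thallium influx and brighter signal; only the inactives scoring about 0 or higher are listed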
Target sequence (O88943 whole entry, looked up): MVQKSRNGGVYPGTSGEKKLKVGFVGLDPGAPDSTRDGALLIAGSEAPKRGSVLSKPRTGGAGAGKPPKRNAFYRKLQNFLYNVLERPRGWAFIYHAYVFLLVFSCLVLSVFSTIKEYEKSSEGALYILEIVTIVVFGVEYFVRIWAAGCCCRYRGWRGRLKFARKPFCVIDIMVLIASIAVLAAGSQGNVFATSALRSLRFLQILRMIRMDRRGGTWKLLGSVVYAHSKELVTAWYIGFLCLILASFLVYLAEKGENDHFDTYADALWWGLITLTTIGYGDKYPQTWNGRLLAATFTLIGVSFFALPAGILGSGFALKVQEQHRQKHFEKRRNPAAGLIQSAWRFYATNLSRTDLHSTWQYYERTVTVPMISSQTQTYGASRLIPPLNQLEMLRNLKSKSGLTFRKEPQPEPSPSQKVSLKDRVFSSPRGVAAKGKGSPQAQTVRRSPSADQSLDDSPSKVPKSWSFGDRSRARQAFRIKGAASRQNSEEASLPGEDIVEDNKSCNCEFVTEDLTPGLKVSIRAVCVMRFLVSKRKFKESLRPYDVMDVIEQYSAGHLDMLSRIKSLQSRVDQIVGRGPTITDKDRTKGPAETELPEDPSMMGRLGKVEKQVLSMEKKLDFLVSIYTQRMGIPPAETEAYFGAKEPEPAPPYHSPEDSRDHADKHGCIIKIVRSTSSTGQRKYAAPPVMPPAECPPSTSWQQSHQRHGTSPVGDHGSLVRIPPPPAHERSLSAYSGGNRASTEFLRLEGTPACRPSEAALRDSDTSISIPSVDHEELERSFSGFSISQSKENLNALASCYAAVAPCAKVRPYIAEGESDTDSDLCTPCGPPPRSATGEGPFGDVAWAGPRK
KCNQ2 enhance baseline: further read-out of KCNQ2 enhance, marked with its call; B-score; compound at 10 µM; measured here: initial fluorescence intensity artifact check;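 brightness before thallium and not channel activity; 0 = typical well and far values either way flag optical interference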
Numbers without * were called inactive. Not all compounds are listed, so the mix of outcomes need not match the whole.

SMILES	KCNQ2 enhance	KCNQ2 enhance baseline
CCCc1cc(=O)[nH]c(SCC(=O)Nc2cc3c(cc2C(C)=O)OCO3)n1	0.16	-0.04
CCCCCNC(=O)C(C#N)c1nc2ccccc2nc1N1CCCC1 (configuration not stated)	0.34	-0.5
Cc1nn(CC(=O)NCCc2ccc(Cl)cc2)c(C)c1[N+](=O)[O-]	1	-0.73
CN(C)C(=O)c1cnc(-c2ccccc2)nc1-c1ccccc1	1.1	0.03
COc1ccc(C(=O)N2CCN(CCc3ccccc3)CC2)cc1[N+](=O)[O-]	0.21	-0.73
COc1ccc(C(=O)NNC(=O)CNC(=O)C2CCCCC2)cc1	1.1	2
NC(CO)c1cn([C@@H](CCC(=O)O)C(=O)N2CCNCC2)nn1 (some centres not stated)	1.7	-0.95
COc1cccc(/C=N/Nc2ccc(Cl)nn2)c1	0.01	-1.3
C(=N\N=C\c1ccncc1)/c1ccncc1	0.07	0.13
COc1cc(/C=C2/SC(=O)N(Cc3ccccc3Cl)C2=O)ccc1OCc1ccncc1	0.51	0.49
CC(=O)c1ccc(NC(=O)Cn2c3ccccc3c3nc(=O)cc(C)n32)cc1	1.3	-0.14
Cc1ccc(-n2ncc3c(NCCCOC(C)C)ncnc32)c(C)c1	0.34	-1.2
O=S(=O)(NCc1ccco1)c1ccccc1Br	1.3	-0.58
Cc1nnc(NC(=O)CSc2nnc3c(n2)[nH]c2ccc(Br)cc23)s1	0.29	1.2
CC(=O)Nc1ccc2nc(C3CCCCC3)[nH]c2c1	2.2	-0.49
O=C(CCN1CCCCC1c1cccnc1)NCc1ccccc1 (configuration not stated)	0.01	1.3
Cc1cccc2sc(NNC(=O)c3ccc(S(=O)(=O)N4CCCC(C)C4)cc3)nc12 (configuration not stated)	0.76	-1.1
C#CCNC(=O)C1=C[C@H](c2csc3ccccc23)[C@@H](CCCO)[C@H](OCC)O1	1.4	-1.5
CCOc1ccc(NC(=S)N2CCN(CCN3C(=O)c4cccc5cccc(c45)C3=O)CC2)cc1	0.58	-0.22
O=C(O)c1ccc(C(=O)O)c(C(=O)c2ccc(NC(=O)c3ccccc3)cc2)c1	0.23	-1
CCN(CC)CCNc1ncnc2c1[nH]c1ccc(OC)cc12	1.7	-0.86
CC(C)(C)C1=CC(=Nc2ccccc2N)C=C(C(C)(C)C)C1=O	0.01	-0.69
CCCCSc1nnc(CCNC(=O)OC(C)(C)C)o1	0.99	-0.18
Cc1ccc(C(=O)Oc2coc(CSc3nnc(NC(=O)c4cccs4)s3)cc2=O)cc1	1.1	-0.06
COc1ccccc1/C=N/n1cnnc1	0.31	0.92
CSc1ncc(CNc2cc([N+](=O)[O-])ccc2C)c(N)n1	0.52	-1.3
CCOc1ccc(NC(=O)CSc2nc(N3CCOCC3)nc(N3CCOCC3)n2)cc1	1.8	0.06
Cc1ccc(Cn2nnc3c(=O)[nH]c(C(=O)NCc4ccco4)nc32)cc1	1.5	-0.01
Cc1ccccc1Oc1cccc(C(=O)/C(C#N)=C/N(C)C)c1	0.88	-1.5
CC(C)(C)N1C(=O)[C@H]2[C@@H](c3ccc(Br)cc3)N3C(=O)N(c4ccccc4)C(=O)[C@@]3(Cc3ccccc3)[C@H]2C1=O	0.09	0.76
Cc1[nH][nH]c(=O)c1N=Nc1ccccc1	1.2	-0.95
Cc1ccc(NC(=O)c2ccccc2SCC(=O)N2CCCC2)cc1S(=O)(=O)N(C)C	0.94	0.48
Cc1cc(C)n(C(N)=NC(=O)c2ccc([N+](=O)[O-])cc2)n1	0.43	0.01
COc1cc(C(=S)N2CCCC2)ccc1O	0.76	0.41
COC(=O)CN1C(=O)CSc2ncccc21	1.1	-0.32
CCOC(=O)N1CCN(S(=O)(=O)c2ccc(OCC)c(C)c2)CC1	0.52	-0.37
COc1ccc(N(CC(=O)NC2CCCCC2C)S(=O)(=O)c2c(C)nn(C)c2C)cc1 (configuration not stated)	0.15	2
CN1N=C(C(C)(C)C)CSC1=Nc1ccc(F)cc1	0.65	1.6
CCCS(=O)(=O)c1nc(S(=O)(=O)c2ccc(Cl)cc2)c(N2CCC(O)CC2)s1	2.2	-1.7
Cc1ccnc(NS(=O)(=O)c2ccc(NC(=O)Cc3ccccc3)cc2)n1	0.19	1.7
CC(C)CC(=O)Nc1ccc(C(=O)CN2CCC(C)CC2)cc1	0.25	0.05
Cc1nnsc1C(=O)NC1CCCc2c1cnn2-c1ccc(C(C)(C)C)cc1 (configuration not stated)	0.15	0.9
Cc1ccc(C(=O)NCc2ccc3c(c2)OCO3)cc1Cl	0.15	-0.37
Cc1cc(C)cc(NS(=O)(=O)c2c(C(=O)N3CCCCCC3)c(C)n(C)c2C)c1	2.1	-1.8
Cc1ccc(S(=O)(=O)NCC(=O)OC(C)C(=O)Nc2ncc(Cl)cc2Cl)cc1 (configuration not stated)	0.03	1.1
Cc1cc(C)nc(NC(=O)c2ccc(Cl)c(Cl)c2)n1	0.52	0.54
COc1cccc(CNc2ccc3c(c2)nc(C)n3C)c1OC	0.49	2
CC(C)CNC(=O)CCCSc1nc2ccccc2[nH]1	0.41	-0.84
COc1ccc(NC(=O)Cn2c(=O)n(CC(=O)NCc3ccco3)c(=O)c3ccccc32)cc1OC	2.2	0.72
CC(C)CNc1nc(Oc2ccc(=O)n(C)n2)nc(N2CCOCC2)n1	0.06	1.8

Next records follow.
SMILES	KCNQ2 enhance	KCNQ2 enhance baseline
CC(C)c1nnc2n1N=C(c1ccc(Cl)cc1)CS2	0.76	-0.52
Nc1nc(/C=C/c2cccnc2)nc(-c2ccccc2O)n1	0.09	1.9
CCCN(Cc1nnc(-c2ccccc2Cl)o1)C(=O)c1ccc(C)c(S(=O)(=O)N2CCOCC2)c1	2	-2.4
Nc1ccccc1Oc1ccc2ccccc2c1	1.2	-0.9
CCC(=O)N1CCN(c2ccc(NC(=O)c3cc4ccccc4o3)cc2)CC1	2	0.25
Cn1c(=O)c2c3c(sc2n2c(SCC(N)=O)nnc12)CC(C(C)(C)C)CC3 (configuration not stated)	3.5	0.97
COc1ccc(C2C(C#N)=C(N)OC3=C2C(=O)CC(C)(C)C3)cc1Cn1nc(C)c([N+](=O)[O-])c1C (configuration not stated)	2.3	-0.14
COc1ccc2nc3oc(C(=O)N4CCC(C(N)=O)CC4)cc3cc2c1	0.01	-0.56
Nc1ccc(C(=O)OCc2nc3ccccc3[nH]2)cc1	0.06	1.4
O=C(CCC1CCCN(C(=O)c2cc(C3CC3)[nH]n2)C1)N1CCN(c2ccccn2)CC1 (configuration not stated)	2	-0.45

An excerpt of these results, as labelled records:
SMILES: Nc1nc(/C=C/c2cccnc2)nc(-c2ccccc2O)n1
  KCNQ2 enhance = 0.09
  KCNQ2 enhance baseline = 1.9

SMILES: CCCN(Cc1nnc(-c2ccccc2Cl)o1)C(=O)c1ccc(C)c(S(=O)(=O)N2CCOCC2)c1
  KCNQ2 enhance = 2
  KCNQ2 enhance baseline = -2.4

SMILES: Nc1ccccc1Oc1ccc2ccccc2c1
  KCNQ2 enhance = 1.2
  KCNQ2 enhance baseline = -0.9

SMILES: CCC(=O)N1CCN(c2ccc(NC(=O)c3cc4ccccc4o3)cc2)CC1
  KCNQ2 enhance = 2
  KCNQ2 enhance baseline = 0.25

Entries of single compounds, looked up by structure. Order of screens: KCNQ2 enhance | KCNQ2 enhance baseline
Results for `CC(C)c1nnc2n1N=C(c1ccc(Cl)cc1)CS2` : 0.76 | -0.52
Results for `O=C(CCC1CCCN(C(=O)c2cc(C3CC3)[nH]n2)C1)N1CCN(c2ccccn2)CC1` (configuration not stated) : 2 | -0.45
Results for `Cn1c(=O)c2c3c(sc2n2c(SCC(N)=O)nnc12)CC(C(C)(C)C)CC3` (configuration not stated) : 3.5 | 0.97
Results for `Nc1ccccc1Oc1ccc2ccccc2c1` : 1.2 | -0.9
Results for `CCC(=O)N1CCN(c2ccc(NC(=O)c3cc4ccccc4o3)cc2)CC1` : 2 | 0.25

(more compounds)
SMILES	KCNQ2 enhance	KCNQ2 enhance baseline
CCn1ncc(CNC(=O)c2cccc([N+](=O)[O-])c2)c1C	0.13	-0.81
Cc1nc2ccc(Cc3ccc4nc(C)[nH]c4c3)cc2[nH]1	0.03	2
O=[N+]([O-])c1ccc(Nc2ccc(F)cc2)nc1	0.31	-0.6
CCOc1ccc(C(=O)NCC(=O)NCCCSc2ccccc2)cc1OCC	0.72	-1
CCn1c(Cc2ccccc2)nnc1SCC(=O)Nc1ccc2c(c1)OCCO2	0.12	1.2
C=CCOc1ccc2ccccc2c1/C=N/O	0.76	0.68
CN(C)S(=O)(=O)c1cccc(C(=O)OCC(=O)c2ccc3c(c2)NC(=O)CO3)c1	0.64	-2.7
CCn1cc([N+](=O)[O-])c(C(=O)Nc2c(C)nn(Cc3c(F)c(F)c(F)c(F)c3F)c2C)n1	0.86	3
COc1ccc(-c2cc(C(=O)N3CC4(C)CC3CC(C)(C)C4)no2)cc1 (configuration not stated)	3.4	-1.6
O=C1NC(Cc2ccccc2)C(=O)Nc2ccc(Br)cc21 (configuration not stated)	0.03	-0.2
O=C(CSc1ncnc2sc3c(c12)CCCC3)N1CCC(c2noc3ccc(F)cc23)CC1	0.97	0.67
COc1ccc2c(C)c(C(=O)N3CC[C@@H](N4CCC(O)CC4)[C@H](O)C3)oc2c1	1.9	0.1
CCOC(=O)c1cccc(NC(=O)CSc2nnc(-c3cccnc3)n2CC)c1	0.84	-0.09
COc1ccc(CNC(=O)/C=C/c2ccc(S(=O)(=O)NCc3ccco3)cc2)cc1OC	0.05	0.18
CCOC(=O)N1CCN(c2nc(=S)n(-c3ccccc3)c(C)c2C(C)=O)CC1	0.12	0.49
Fc1ccc(-c2ccnc(=S)[nH]2)cc1	4.3	0.09
COc1ccc(-c2cc(=O)c3cc(OC)c(OC)cc3[nH]2)cc1	0.4	0.16
CCc1cccc(CC)c1NC(=O)CSc1nnc(CCC(=O)O)c(=O)[nH]1	0.62	0.26
C/C(=N\OC(=O)c1ccc(Cl)cc1)c1nccs1	0.01	0.03
Cc1ccc(O)c(-c2cc(-c3cccc(F)c3)n[nH]2)c1	1	3.3
NC(=O)COc1ccc(C2c3c(oc4ccccc4c3=O)C(=O)N2CC2CCCO2)cc1 (configuration not stated)	1.6	0.01
Cc1cccc(NC(=O)Cn2c(O)c(N=NC(=O)c3ccncc3)c3ccccc32)c1	0.08	-0.13
Cc1ccc(CNC(=O)c2ccc(N3CCC4(CC3)CC(c3ccccc3)=NO4)c(NC(=O)c3ccccc3)c2)cc1	1.1	0.54
COCCNC(=O)c1onc(CSc2ccccc2)c1C(=O)NCCOC	1.3	-0.55
O=C1CCCCC1Sc1nnc(-c2ccc3c(c2)OCO3)o1 (configuration not stated)	0.24	0.02
CC(C)Oc1ccc(Br)cc1/C=N\NC(N)=S	1.2	-0.51
CN1C(C(=O)NCCc2cccs2)CC2Cn3c(nc4cc5ccccc5cc43)C21 (configuration not stated)	0.05	1.1
COc1ccc(N2CCN(C(=O)CN(C3CCCCC3)S(C)(=O)=O)CC2)cc1	1	-0.11
CCOC(=O)NC(NC(=O)OCC)C(=O)c1ccccc1	0.17	0.19
COc1ccccc1N1CCN(C(=O)Cn2nnc(-c3ccncc3)n2)CC1	0.12	-0.7
O=C(Nc1nnc(S(=O)(=O)Cc2ccc(F)cc2)s1)c1ccccc1F	0.29	0.02
CN(C)S(=O)(=O)c1ccc(-c2ccccc2)cc1	0.65	-0.3
O=c1[nH]ncc(N/N=C\c2cccs2)c1Cl	0.21	-0.21
COc1ccc([N+](=O)[O-])cc1NC(=O)C1CCCN1S(=O)(=O)c1cccs1 (configuration not stated)	0.11	0.12
Cc1c(-n2c(O)c(C3=c4ccccc4=NC3=O)sc2=O)c(=O)n(-c2ccccc2)n1C	0.2	1.9
COC(=O)NCC(c1ccc2c(c1)OCO2)N1CCN(c2ccccc2)CC1 (configuration not stated)	0.41	1.7
COc1ccccc1CN1CC(C(=O)NCCN2CCOC2=O)CCC1=O (configuration not stated)	0.16	-0.9
O=S(=O)(NC(=S)NC1CCCCC1)c1ccc(Cl)cc1	4.2	-2
O=C(CSc1n[nH]c(-c2ccccc2)n1)Nc1ncccn1	0.44	-0.05
CC(C)(C)C(=O)Nc1ccc(-c2cn3cccnc3n2)cc1	0.33	-0.03
COc1ccc(S(=O)(=O)N(C)CC(=O)NC2CCCCC2)cc1OC	0.74	-2.5
Cc1nn(C)c(Oc2cccc(Cl)c2)c1C(=O)O	0.38	-1.1
CCCCN1CC(C(=O)NC2CCCCC2)CC1=O (configuration not stated)	1.2	-0.99
C/C(=N/NC(=O)CNC(=O)c1cccnc1)c1ccccc1	1.2	0.02
O=C(COc1ccc(Cl)cc1Cl)NN1C(=O)C2C3C=CC(C3)C2C1=O (configuration not stated)	0.12	1.2
O=C(O)C1C2C=CC3(CN(Cc4ccncc4)C(=O)C13)O2 (configuration not stated)	0.37	-2.2
Cc1onc(-c2c(F)cccc2Cl)c1C(=O)ONC(=O)c1ccccc1	0.41	0.84
CS(=O)(=O)N1N=C(c2ccco2)CC1c1ccccc1 (configuration not stated)	0.9	0.07
O=C(O)c1ccc(Cl)cc1NC(=O)C1CCCO1 (configuration not stated)	0.07	0.07
CCN(CC(=O)Nc1ccc(OC)cc1)C(=O)c1oc2c(Cl)cccc2c1C	0.26	-0.01

2 records drawn at random from those above, as already listed:
SMILES	KCNQ2 enhance	KCNQ2 enhance baseline
O=C(CSc1ncnc2sc3c(c12)CCCC3)N1CCC(c2noc3ccc(F)cc23)CC1	0.97	0.67
COc1ccc2c(C)c(C(=O)N3CC[C@@H](N4CCC(O)CC4)[C@H](O)C3)oc2c1	1.9	0.1

(cont.)
SMILES	KCNQ2 enhance	KCNQ2 enhance baseline
COc1ccc(-c2cc(C(F)(F)F)nc(SCCC(=O)NCc3ccco3)n2)cc1	2.1	-0.54
COc1ccc(/C=N\NC(=O)COc2ccc(Cl)cc2Cl)c(C(=O)O)c1OC	0.02	0.15
COc1ccc(C(=O)Nc2ccnn2C2CCN(C(=O)c3cc(C)on3)CC2)cc1	1.1	-0.45
Cc1cc(C)cc(-n2nnnc2SCC(=O)N2CCOCC2)c1	0.4	-0.02

Source: PubChem BioAssay
